# Rce1 inh = blocks yeast Ras-converting enzyme | yeast membranes, quenched prenylated peptide cleavage fluorescence | calls only | 0.27% of 290,000 active;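 active means fall in fluorescence gain of 50% or more versus controls, with final raw signal at or below 3038400; inconclusive means same 50% fall but final raw signal above 3038400; inactive means fall in fluorescence gain under 50%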;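 further: plate controls were neutral control wells for no effect and wells lacking membranes for full effect; tested at 10 µM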
# HIV Env fusion = HIV envelope-mediated fusion inhibition; HeLa-JRFL Env/CEM21 cell fusion, luciferase; inhibition, % at 12.3 µM; 1.1% of 360,000 active; AID 651610;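 active means mean replicate inhibition score of at least 50 and every replicate individually at or above 50; inconclusive means only one of the two criteria met; inactive means mean below 50 and not all replicates reaching 50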;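 further: 0% = plate neutral controls and 100% = maraviroc near 300 nM; one replicate is shown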
# CSC inhib = cancer stem cell inhibition | cancer stem cell-like cells viability, luminescence | inhibition, % at 7.5 µM | 1.1% of 300,000 active | AID 2717;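 active means mean at 75% or more and at least half the replicates too; inconclusive means mean and replicates disagree; tested in HMLE shEcad cells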;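 further: 0% = median of negative and 100% = median of positive control wells; the first replicate is given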
# MT1-MMP act inh = MT1-MMP (human) activation inhibition; HT1080 RFP-PRO-GFP cells, GFP/RFP ratio fluorescence, overnight; percent of plate control window, DMSO zero; GFP/RFP ratio change, % at 20 µM; 0.061% of 360,000 active; P50281;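 active means GFP/RFP ratio change of at least 30% with cell ATP level not reduced by more than half and red fluorescence within 50% of control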; further: strong numbers were not always called active
#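 Compound: 20 µM single dose, 1% DMSO / System: HT1080 RFP-PRO-GFP cells / Controls: DMSO and RFP-L50D-GFP cell wells / Read-out basis: GFP/RFP fluorescence ratio / Schedule: overnight compound exposure at 37 °C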
# PABP polyA inh = blocks human PABP binding to poly(A) RNA; P11940; fluorescence polarization; inhibition, % at 35 µM; 1% of 290,000 active; AID 2014;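 active means 50% or more with normal probe brightness, or confirmed in later tests; inconclusive means above 50% with abnormal brightness, or retests that disagree; inactive means below 50% or failed in later tests; about a fifth of its hits are not listed in these tables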;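 further: calls also rest on retests at 20 µM and on dose response follow-up; controls were probe without protein and protein plus probe with vehicle; some compounds called inactive have numbers as strong as hits; many hits fall short of the cut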
# Target sequence (P11940 whole entry, looked up): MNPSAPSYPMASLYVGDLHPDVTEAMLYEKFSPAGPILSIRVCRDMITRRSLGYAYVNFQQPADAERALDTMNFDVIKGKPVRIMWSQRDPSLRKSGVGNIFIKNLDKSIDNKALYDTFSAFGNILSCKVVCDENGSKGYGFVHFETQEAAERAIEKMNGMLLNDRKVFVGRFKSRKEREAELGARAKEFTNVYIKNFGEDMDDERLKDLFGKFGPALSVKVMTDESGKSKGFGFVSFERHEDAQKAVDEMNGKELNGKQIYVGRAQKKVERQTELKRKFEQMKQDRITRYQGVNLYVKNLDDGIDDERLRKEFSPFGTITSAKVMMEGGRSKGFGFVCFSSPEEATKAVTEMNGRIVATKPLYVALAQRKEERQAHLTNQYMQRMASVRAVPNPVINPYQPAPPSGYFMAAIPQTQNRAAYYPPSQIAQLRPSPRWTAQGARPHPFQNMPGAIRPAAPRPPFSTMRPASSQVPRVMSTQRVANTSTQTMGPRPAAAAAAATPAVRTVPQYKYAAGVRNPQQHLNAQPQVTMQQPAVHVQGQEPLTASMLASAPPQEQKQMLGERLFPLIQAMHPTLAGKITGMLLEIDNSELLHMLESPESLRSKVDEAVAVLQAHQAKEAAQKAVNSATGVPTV
# eIF4H inh = inhibitors of RNA binding by human eIF4H; inhibition, % at 35 µM; eIF4H fluorescence polarization binding assay; 0.94% of 290,000 active; AID 2012;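 active means 50% or more with normal probe brightness, or confirmed in later tests; inconclusive means above 50% with abnormal brightness, or retests that disagree; inactive means below 50% or failed in later tests; about a fifth of its hits are not listed in these tables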;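 further: calls also rest on retests at 20 µM and on dose response follow-up; 0% = protein and probe with vehicle and 100% = probe without protein; strong numbers were not always called active; many hits fall short of the cut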
# Yeast UUG start = yeast start codon fidelity modulation. 0.13% of 350,000 active. S. cerevisiae UUG-firefly luciferase reporter, luminescence/redox ratio. activity score, % at 18.7 µM;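 active means replicate mean at a twofold rise or more, about +100% in these data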;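 further: firefly luciferase made from a UUG start codon reports start codon fidelity; reporter light over untreated wells divided by growth signal over untreated wells; some hits fall short of that in this replicate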
# MT1-MMP act inh RFP = recorded beside MT1-MMP act inh, whose call it bears; RFP signal change, %; measured here: RFP expression control read;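 0 = vehicle wells; hits needed this value within 50% of zero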
# * marks the source's active call; other numbers are inactive results; i = inactive; ? = inconclusive; . = no result given.
SMILES,Rce1 inh,HIV Env fusion,CSC inhib,MT1-MMP act inh,MT1-MMP act inh RFP,PABP polyA inh,eIF4H inh,Yeast UUG start
CNC(=O)NC(=O)COc1ccc2oc3c(c2c1)CCCC3,i,-12.5,-7.0,-2.9,0.4,2.4,-2.0,-4.0
O=C(c1ccco1)N1CCN(S(=O)(=O)c2cccs2)CC1,i,.,4.8,2.2,0.6,4.8,-1.6,-19.0
CCOc1ccc(CCNC(=O)COC(=O)c2cccc(S(=O)(=O)N3CCCCC3)c2)cc1OCC,i,1.5,-9.9,-1.5,3.1,.,.,.
O=C(Nc1ccccc1N1CCOCC1)c1ccc2ccccc2n1,i,-357.3,44.1,-7.4,-9.4,5.6,4.8,-23.5
Fc1ccc(-c2nnc3ccc(N4CCc5ccccc5C4)nn23)cc1,i,-34.8,37.6,-7.7,6.1,7.2,-4.2,-7.7
COc1ccccc1CNC(=O)c1cc2ccccc2oc1=O,i,8.5,1.8,2.7,5.6,12.1,3.3,-0.9
Cc1ccc(OCC(=O)Nc2ccc(-c3nnc(-c4ccco4)o3)cc2)cc1,i,.,.,10.7,3.3,1.0,17.4,-3.4
NNC(=O)c1nnn(-c2nonc2N)c1CN1CCc2ccccc2C1,i,7.4,-9.0,-1.8,0.6,4.8,-7.9,.
C=CCNC(=O)CC(=O)N/N=C/c1ccc(C(=O)OC)cc1,i,.,-5.0,-1.3,2.0,4.5,-6.7,.
CCCCNC(=O)C1CCCN1C(=O)Nc1ccccc1 (stereo unspecified),i,-7.8,-12.0,-0.1,-9.8,-0.3,2.6,-4.4
CCN(CC)c1ccc(NC(=O)c2ccc(NC(=O)C3CCCO3)cc2)c(C)c1 (stereo unspecified),.,-31.2,4.5,2.5,5.4,0.4,8.5,-18.8
O=C(Nc1ccccc1N1CCCC1)c1ccc(F)c(S(=O)(=O)N2CCOCC2)c1,i,2.5,-2.2,0.4,-2.8,.,.,3.4
Cc1cccc(-c2sc(Nc3ccccc3)n[n+]2-c2ccccc2)c1,.,-4.6,-25.4,-4.5,-1.4,.,.,-8.1
CCOC(=O)c1ccc(CNC(=O)C(Cc2c[nH]c3ccccc23)NC(C)=O)o1 (stereo unspecified),i,5.2,3.8,0.4,4.0,2.9,7.1,0.9
Cc1cc(C)cc(NC(=S)N(Cc2cccc(Br)c2)CC2CCC(C(=O)O)CC2)c1 (stereo unspecified),i,1.0,-3.2,-3.0,-2.1,19.9,0.5,-19.0
CCOC(=O)c1c(C)[nH]c2ccc(O)cc12,i,-99.1,-8.1,5.2,5.2,6.3,9.1,-14.2
CCOC(=O)c1c(NC(=O)Nc2ccc(F)cc2)sc2c1CCN(C)C2,i,14.6,10.9,-2.2,-0.4,4.8,-3.5,.
CC(C)(C)OC(=O)N[C@@H](Cc1ccccc1)C(=O)N[C@@H](CO)[C@H](O)[C@@H]1C[C@@H]1C(=O)NC1CC1,i,.,14.3,4.9,6.4,-1.5,-1.3,-11.0
O=C(NCc1ccco1)C(c1ccc(F)cc1)N(Cc1cccnc1)C(=O)Cn1nnc2ccccc21 (stereo unspecified),i,.,.,3.3,0.7,-1.3,5.2,-13.9
COCCNC(=O)C1(C)CCN(C(=O)c2nc(C)oc2C)C1 (stereo unspecified),.,0.0,.,3.5,4.6,.,.,-17.0
Cc1ccc(-n2nc3c(=O)n(CC(=O)c4ccc(F)cc4)nc(C)c3c2C)cc1,i,42.8,-12.3,5.9,-9.0,-5.4,2.0,4.9
COc1ccc(-n2c(=O)c3ccccc3n(Cc3ccc(F)cc3)c2=O)cc1OC,.,-24.1,0.7,-4.0,0.1,14.0,2.1,-11.2
CCOC(=O)N1CCN(C(=O)C2CCN(S(=O)(=O)c3ccc(OCC)cc3)CC2)CC1,i,-15.0,-2.9,0.9,2.3,-0.6,-2.8,7.3
COc1ccc(/C(O)=C2/C(=O)C(=O)N(c3ncccn3)C2c2ccc(C(C)(C)C)cc2)cc1 (stereo unspecified),i,15.4,-15.4,.,.,?,-6.3,.
Cc1ccc(-n2c(Cc3cccn3C)nnc2SCC(=O)NC2CCCCC2)cc1,i,10.1,0.5,2.8,-3.6,-1.9,-2.6,-0.4

# More records follow.
SMILES,Rce1 inh,HIV Env fusion,CSC inhib,MT1-MMP act inh,MT1-MMP act inh RFP,PABP polyA inh,eIF4H inh,Yeast UUG start
COc1ccc(N2CCN(C(=O)C3CC(O)CN3S(=O)(=O)c3ccc([N+](=O)[O-])cc3)CC2)cc1 (stereo unspecified),i,-2.2,9.9,0.1,2.3,5.5,7.1,.
CC(C)(C)c1ccc(C(=O)NNC(=S)NCC2CCCO2)cc1 (stereo unspecified),i,-2.0,-3.2,3.9,1.0,-3.5,-4.9,.
Cc1ccc(C)c(OCCC(=O)OCC(=O)Nc2ccc(C)c(S(=O)(=O)N3CCCCC3)c2)c1,i,-15.9,-6.7,4.8,3.9,.,.,.
CCC(C)c1ccccc1N1CC(C(=O)NCCC2=CCCCC2)CC1=O (stereo unspecified),.,5.5,.,1.7,-2.9,.,.,9.4
O=C(O)C1C2C=CC(C2)C1C(=O)NCc1ccoc1 (stereo unspecified),i,.,-9.2,-2.3,3.6,0.6,43.0,.
COc1ccc(NC(=O)c2nc[nH]c2C(=O)N[C@H](C)c2ccccc2)cc1,i,-15.0,.,11.8,-1.0,-3.5,15.5,-12.6
COc1ccc(NC(=O)c2oc3ccccc3c2NC(=O)C2CC2)cc1OC,i,-23.3,0.9,2.6,1.5,4.1,7.4,-10.8
Cc1cc(Br)ccc1Nc1nc(N)nc(N)c1N=O,.,56.1*,.,-16.6,-3.4,.,.,-7.8
COC(=O)COc1cccc2c(=O)n(CC(=O)N3CCCc4ccccc43)ccc12,i,-11.6,-9.1,-0.5,4.0,-4.9,-3.7,-6.8
Clc1ccc(-c2nnc(CSc3nnc(-c4cccs4)n3Cc3ccccc3)o2)cc1,.,39.4,41.9,-6.4,-23.9,-9.8,-4.9,1.8
Cc1ccc(C2(c3noc(CN(C)Cc4cccnc4)n3)CCCC2)cc1,i,8.7,-9.4,-2.7,-6.4,8.1,-6.1,.
CCOc1ccc(N(CC(=O)NC2CCCCC2)C(=O)CNC(=O)c2cccs2)cc1,i,-53.9,.,0.1,0.0,8.2,6.3,-19.0
CN1C(CCl)Nc2cc(Cl)c(S(N)(=O)=O)cc2S1(=O)=O (stereo unspecified),.,-0.8,.,1.7,3.1,.,.,-14.4
CC(=O)Cc1nsc(NC(=O)C2Cc3ccccc3C(=O)O2)n1 (stereo unspecified),i,-38.4,14.9,2.8,0.3,3.7,-8.9,-6.7
CCCc1ccc(OCC(O)CN2CCN(c3ccccn3)CC2)cc1 (stereo unspecified),i,-0.3,24.1,0.8,0.3,7.6,-5.6,-7.9
Cc1ccc(NC(=O)CCN2CC(C)OC(C)C2)cc1 (stereo unspecified),i,-50.4,-21.0,-3.0,4.8,2.1,0.1,-8.1
COc1ccc(C)cc1N(CC(=O)N1CCCCCC1)S(=O)(=O)c1ccc(C)cc1,.,13.4,-3.4,-4.0,-5.1,-9.1,-5.9,-2.9
O=C(COc1ccccc1-c1ccccc1)N/N=C/c1ccccn1,i,7.7,-8.3,-2.1,-5.5,-9.6,-9.2,-9.1
COc1ccc(CNC(=O)COC(=O)c2ccc(C)c(S(=O)(=O)N3CCOCC3)c2)cc1,.,-7.1,-9.1,1.0,1.4,.,.,-4.5
COc1ccccc1C(=O)NC(=S)N1CCCc2ccccc21,i,.,-8.1,-2.6,-6.1,57.4*,32.3,-7.2
O=S(=O)(N/N=C/c1ccc(N2CCOCC2)cc1)c1ccccc1,i,9.0,-1.0,-0.5,1.1,5.2,-0.6,.
COC(CNC(=O)CNC(=S)N(CCCN1CCOCC1)Cc1cccs1)OC,i,5.3,11.2,-1.9,-4.5,7.9,-3.2,-15.9
Cc1ccccc1NC(=O)NC1(C(=O)NCCCN2CCOCC2)CCCCC1,i,.,-5.8,1.5,9.7,10.4,13.7,-21.7
CCN(CCn1cccn1)C(=O)CC1C(=O)NCCN1Cc1cccc(OC)c1OC (stereo unspecified),i,17.6,-5.0,-3.8,4.6,10.4,10.1,.
COc1cc(NC(=O)c2ccc(Br)o2)ccc1NC(=O)C(C)C,i,.,7.4,3.3,4.7,5.0,3.0,-12.9

# The list goes on:
SMILES,Rce1 inh,HIV Env fusion,CSC inhib,MT1-MMP act inh,MT1-MMP act inh RFP,PABP polyA inh,eIF4H inh,Yeast UUG start
CCOC(=O)/C(C#N)=C/c1cn(CCOc2ccccc2)c2ccccc12,i,6.9,18.6,-6.9,-2.4,-6.7,-11.9,.
OC[C@@H]1CN(Cc2ccc(-c3ccccc3)cc2)C[C@H](n2cnc3c(NCc4ccc(F)cc4)ncnc32)O1,.,50.9,.,-1.6,-30.6,.,.,-4.6
O=C(C1CCCN(S(=O)(=O)c2ccccc2)C1)N1CCN(c2ccccc2)CC1 (stereo unspecified),i,10.4,6.9,10.6,1.0,12.9,2.5,-24.4
COC(=O)c1ccc(C2C(C(=O)c3ccc(C)o3)=C(O)C(=O)N2c2cc(C)on2)cc1 (stereo unspecified),i,4.7,1.8,0.3,7.6,8.7,5.8,14.1
CC(C)C(=O)N1CCN(c2ccc(NC(=O)c3ccc([N+](=O)[O-])o3)cc2)CC1,i,-387.0,20.6,9.3,-22.9,-5.8,-17.0,.
COc1ccc(CCN2C(=O)c3cccc4cccc(c34)C2=O)cc1OC,i,-4.8,-8.2,-2.1,5.4,-2.4,-14.5,4.8
COc1c2occc2c(OC)c2c(=O)cc(C(F)(F)F)oc12,i,.,-2.7,-0.7,0.5,-3.7,-7.2,-13.5
CC(C)(C)C(=O)NN=C1CCC(c2ccccc2)CC1 (stereo unspecified),i,14.2,-6.7,-1.4,5.0,-10.0,-0.9,-17.6
CN(C(=O)COC(=O)CN1C(=O)C2CC=CCC2C1=O)c1ccccc1 (stereo unspecified),i,-2.9,-6.5,4.6,1.3,.,.,-9.3
COc1ccc(Cn2nnc3c(=O)[nH]c(C(=O)NCCc4ccc(F)cc4)nc32)cc1OC,i,29.9,7.0,2.3,-2.9,8.9,1.4,3.7
CCN(CC)C(=O)[C@H]1C[C@H](CC(=O)NCCCn2ccnc2)C(=O)N2CCc3c([nH]c4cc(-c5ccco5)ccc34)[C@]12C,.,18.3,.,2.0,-0.5,.,.,-11.1
Cc1ccccc1-c1nc(SCc2cccnc2)c2c(=O)n(C)c(=O)n(C)c2n1,i,5.4,-10.4,-11.6,-4.7,-16.2,-2.0,-9.9
Cc1ccc(-n2c(SCC(=O)Nc3cc(C)on3)nc3ccccc3c2=O)cc1,i,-105.3,-12.5,7.3,0.0,-6.4,-7.2,-13.0
O=C(O)c1ccccc1C(=O)N1CCN(c2ncccn2)CC1,i,5.1,-13.5,-5.7,-0.2,1.7,-3.7,-7.5
S=C(NCCc1ccccc1)N1CCOCC1,i,-3.0,-2.5,-2.2,-1.0,0.0,-1.0,-9.3
CON(C)S(=O)(=O)c1cccc(C(=O)Oc2ccc(N(C)S(=O)(=O)c3ccccc3)cc2)c1,i,0.4,3.7,-1.8,4.0,-4.3,-13.5,-10.5

# Arranged by number of heavy atoms (low to high): part of the list above.
SMILES,Rce1 inh,HIV Env fusion,CSC inhib,MT1-MMP act inh,MT1-MMP act inh RFP,PABP polyA inh,eIF4H inh,Yeast UUG start
S=C(NCCc1ccccc1)N1CCOCC1,i,-3.0,-2.5,-2.2,-1.0,0.0,-1.0,-9.3
CC(C)(C)C(=O)NN=C1CCC(c2ccccc2)CC1 (stereo unspecified),i,14.2,-6.7,-1.4,5.0,-10.0,-0.9,-17.6
O=C(C1CCCN(S(=O)(=O)c2ccccc2)C1)N1CCN(c2ccccc2)CC1 (stereo unspecified),i,10.4,6.9,10.6,1.0,12.9,2.5,-24.4
COc1ccc(Cn2nnc3c(=O)[nH]c(C(=O)NCCc4ccc(F)cc4)nc32)cc1OC,i,29.9,7.0,2.3,-2.9,8.9,1.4,3.7

# Compound activity from PubChem BioAssay.
